# Assay outcomes: PubChem, National Center for Advancing Translational Sciences (NCATS)
# Marburg entry inh: qHTS for inhibitors of binding or entry into cells for Marburg Virus. AID 540276, 2011. Marburg virus pseudotyped entry inhibition, cell reporter; control for the full effect not named in the record; about a third of the inactives were read at about 46 µM. Potency, µM (series often up to 37.8 µM), for the others: top-dose activity change, negative = inhibition, usual class: inhibitors. 1.8% of 300,000 active; active = well fitted inhibition curve with a large enough effect; inconclusive = small, poorly fitted or top-dose-only effect, or effect the other way; inactive = flat fitted curve, though single readings scatter; tested in HEK293 cells; about a fifth of its hits are not listed in these tables; further: on the % scale 0 is the no-effect control and ±100 the full control effect; luciferase read-out
# NS1 inh: qHTS Assay for Inhibitors of Influenza NS1 Protein Function; 0.4% of 270,000 active; AID 2326, 2010; Potency, µM (doses to about 46.1 µM), for inactives: at the highest dose activity, positive = more growth; S. cerevisiae slowed by influenza A NS1, growth recovery by OD600; further: actives are rising curves; nearly all actives have a fitted effect of over 50% in size
#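 A cell-based growth assay was used: compounds that relieve NS1-induced slow growth of budding yeast raise OD600. Assay medium was yeast nitrogen base with ammonium sulphate and -URA supplement, pH 6.0, with 2% galactose.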
# Cruzain Triton: qHTS Assay for Promiscuous and Specific Inhibitors of Cruzain (with detergent). Cruzipain (Trypanosoma cruzi), P25779. purified cruzain, Z-FR-AMC fluorescence, 0.01% Triton. Potency, µM, inactives show max response, negative = inhibition, actives largely listed as inhibitors. 0.43% of 200,000 active. AID 1478, 2009; active means well fitted curve in the direction sought with a large enough effect; inconclusive means small, poorly fitted or top-dose-only effect, or another doubt; inactive means no such curve, though single readings can be large; an effect the other way counts as inactive or inconclusive;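 further: plate controls were neutral wells for no effect and buffer without enzyme for full effect; nearly all actives have a fitted effect of over 40% in size; top concentration of the series not given in the record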
# Target sequence (P25779 123-467 limits assumed): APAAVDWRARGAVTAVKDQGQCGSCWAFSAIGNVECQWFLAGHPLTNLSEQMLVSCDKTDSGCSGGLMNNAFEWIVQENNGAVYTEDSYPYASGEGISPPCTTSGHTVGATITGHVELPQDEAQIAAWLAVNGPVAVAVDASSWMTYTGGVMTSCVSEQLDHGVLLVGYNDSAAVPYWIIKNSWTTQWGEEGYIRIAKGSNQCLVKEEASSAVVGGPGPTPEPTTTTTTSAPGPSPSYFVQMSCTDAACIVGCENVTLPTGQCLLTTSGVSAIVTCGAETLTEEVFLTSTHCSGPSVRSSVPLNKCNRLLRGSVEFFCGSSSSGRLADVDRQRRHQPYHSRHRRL
#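 Read-out: AMC fluorescence (360 nm excitation, 450 nm emission), four reads over 2 min, first-to-third difference used. Conditions: cruzain 1.5 nM, Z-FR-AMC 2 uM, pH 5.5 acetate, 5 mM DTT, 0.01% Triton X-100.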
# RE007 growth inh: qHTS Assay for Inhibitors of the HIV-1 protein Vpr. S. pombe RE007 Vpr strain, BacTiter-Glo ATP luminescence, 24 h; control for the full effect not named in the record. Potency, µM (top dose mostly 92.2 µM), without a hit: at the top dose activity change, negative = less growth. 0.21% of 360,000 active. AID 651644, 2012; active = well fitted falling curve with a large enough effect; inconclusive = small, poorly fitted or top-dose-only effect; inactive = no such curve, though single readings can be large or run the other way;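 further: on the % scale 0 is the no-effect control and ±100 the full control effect; nearly all actives have a fitted effect of over 50% in size; the assay follows cell death caused by Vpr and the record does not say whether a fall means rescue or toxicity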
#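 Fission yeast RE007 carrying one integrated HIV-1 vpr copy, seeded at OD 0.01 in PMG+AL medium with 23 nL pinned compound. Grown 24 h at 30 degrees; viability read by BacTiter-Glo luminescence after 5 min.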
# 2A StopGo: High Throughput Screening for Foot and Mouth Disease Virus Antivirals. Potency, µM (series often up to 57.9 µM), for the others: at the top dose signal change, negative = less light. 1.2% of 410,000 active. AID 1159524, 2015. human cells with a luciferase reporter of 2A StopGo recoding; control for the full effect not named in the record; active = well fitted falling curve with a large enough effect; inconclusive = small, poorly fitted or top-dose-only effect; inactive = no such curve, though single readings can be large or run the other way; tested in HEK293T cells; further: on the % scale 0 is the no-effect control and ±100 the full control effect; nearly all actives have a fitted effect of over 45% in size; luciferase light after 4 h
# Cruzain noTriton: qHTS Assay for Promiscuous and Specific Inhibitors of Cruzain (without detergent); Potency, µM, for the others: max response, negative = inhibition, hits mostly inhibitors; 2.3% of 200,000 active; purified cruzain, Z-FR-AMC fluorescence, no detergent; Cruzipain (Trypanosoma cruzi), P25779; AID 1476, 2009; active means well fitted curve in the direction sought with a large enough effect; inconclusive means small, poorly fitted or top-dose-only effect, or another doubt; inactive means no such curve, though single readings can be large; an effect the other way counts as inactive or inconclusive;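 further: plate controls were enzyme without inhibitor for no effect and buffer without enzyme for full effect; nearly all actives have a fitted effect of over 40% in size; top concentration of the series not given in the record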
#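 Detergent-free condition (0.00005% Triton X-100) in acetate buffer pH 5.5 with DTT. 1.5 nM enzyme and compound were pre-mixed 15 min, then 2 uM Z-FR-AMC substrate added; reaction progress from fluorescence change between first and third reads (60 s).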
# Lassa entry inh: qHTS for Inhibitors of binding or entry into cells for Lassa Virus; Potency, µM (top dose mostly 37.9 µM), for inactives: top-dose activity change, negative = inhibition, actives largely listed as inhibitors; 1.2% of 300,000 active; AID 540256, 2011; Lassa virus pseudotype entry inhibition, cell reporter; control for the full effect not named in the record; active means well fitted inhibition curve with a large enough effect; inconclusive means small, poorly fitted or top-dose-only effect, or effect the other way; inactive means flat fitted curve, though single readings scatter; tested in HEK293 cells; further: on the % scale 0 is the no-effect control and ±100 the full control effect; nearly all actives have a fitted effect of over 50% in size; luciferase read-out
# SARS PLpro yeast: qHTS of Yeast-based Assay for SARS-CoV PLP; Potency, µM (top dose mostly 32.9 µM), for inactives: at the top dose activity, positive = growth rescue; AID 485353, 2010; S. cerevisiae expressing SARS-CoV PLpro, growth rescue; control for the full effect not named in the record; 0.19% of 330,000 active; further: 0% is about no effect; nearly all actives have a fitted effect of over 55% in size; growth read by luminescence after 48 h
# Numbers without * were called inactive; ? = inconclusive; · = no result given; & = joins results of further samples; [ ] = dose if it differs, or a comment. Unless noted, the call rests on the fitted dose curve; in most records, active means well fitted rising curve with a large enough effect; inconclusive means small, poorly fitted or top-dose-only effect; inactive means no such curve, though single readings can be large or run the other way. Potency means the concentration at half of the fitted maximal effect.
1	O=C(CCc1ccccc1)Nc1ncc([N+](=O)[O-])s1
2	CCCCn1nc2cc(C(=O)N[C@H](C)C3CCCCC3)ccc2c1OCC
3	COC(=O)C1=C(c2ccc(F)cc2OCc2ccccc2)C[C@@H]2CC[C@H]1N2C(=O)NCc1ccc2[nH]ccc2c1
4	COc1ccc(NS(=O)(=O)c2cccc(C(=O)NNC(=O)c3cncc(Br)c3)c2)cc1
5	Cc1cc(C)c2c3c(sc2n1)C1(CCSCC1)C(C#N)=C(N)O3
6	Cc1cc(C)c(NC(=O)C2CCC(=O)N2)c(C)c1 (stereo unspecified)
7	Cc1ccc(S(=O)(=O)N(C)CC(=O)NC2CCCC2)cc1
8	COc1ccccc1NS(=O)(=O)c1cccc(C(=O)N/N=C/c2ccc(OCC(=O)O)cc2)c1
9	Nc1cccc(/C=C/C(=O)O)c1
10	CCn1cc(C(=O)NN)c(=O)c2cc(F)c(N3CCCCC3)cc21

Assay by compound,1,2,3,4,5,6,7,8,9,10
Marburg entry inh,?,·,0%,?,-25%,0%,2%,-17%[46.1 µM],·,·
NS1 inh,·,3%,·,·,-15%,3%,7%,6%,-1%,10%
Cruzain Triton,·,-0.2%,·,·,-12%,·,-2.4%,·,·,·
RE007 growth inh,-19%,-3%,12%,1%,14%,26%,1%,-1%,15%,-2%
2A StopGo,31%[activator],-13%,-18%,17%,·,11%,-25%,-12%,8%,-11%
Cruzain noTriton,·,-7%,·,·,3%,·,1%,·,·,·
Lassa entry inh,?,·,·,0%,-28%,?,-5%,30%[46.1 µM],·,·
SARS PLpro yeast,-10%,5%,9%,-1%,-12%,0%,1%,0%,0%,-1%

11	O=C(CC1(O)C(=O)N(CN2CCOCC2)c2ccccc21)c1ccccc1 (stereo unspecified)
12	CCCC(C(=O)NC1CCCC1)N(C(=O)Cn1nnc(-c2ccc(C)o2)n1)c1ccccc1F (stereo unspecified)
13	CNC(=S)NCc1ccc(Cl)cc1
14	O=C(COc1ccc(-n2cnnn2)cc1)Nc1ccc(F)c(Cl)c1
15	Cc1noc(C)c1S(=O)(=O)Nc1ccc(O)c2c(=O)cc(-c3ccccc3Cl)oc12
16	CN(CC(=O)Nc1ccccc1Cl)C(=O)COC(=O)c1ccc(=O)n(Cc2ccccc2)n1
17	COc1cccc(CNC(=O)Cn2ncn3c(cc4ccccc43)c2=O)c1
18	Cc1ccc(-c2noc(C3CCN(S(=O)(=O)c4ccc5c(c4)OCCO5)CC3)n2)o1
19	CCOc1ccc2c(c1)[C@@H]1C=CC[C@@H]1[C@H](c1ccccc1Cl)N2
20	CC(C)C(=O)Nc1ccc2nc(SCC(=O)N3CCOCC3)sc2c1

Assay by compound,11,12,13,14,15,16,17,18,19,20
Marburg entry inh,0%,?,-1%,8%[46.1 µM],·,-3%,?,?,1%[46.1 µM],18%[46.1 µM]
NS1 inh,11%,9%,·,·,-5%,·,·,3%,·,·
Cruzain Triton,11%,·,·,·,·,·,-0.9%,-1.7%,-4.8%,-4.7%
RE007 growth inh,4%,-3%,5%,-8%,13%,-9%,·,11%,·,·
2A StopGo,-5%,6%,-14%,-8%,-6%,-10%,1%,?,1%,3%
Cruzain noTriton,2%,·,·,·,·,·,-7%,1%,-10%,-4%
Lassa entry inh,-12%,-17%[46.1 µM],-14%,8%[46.1 µM],?,-3%,·,?,9%[46.1 µM],12%[46.1 µM]
SARS PLpro yeast,·,-1%,·,-21%,0%,3%,·,1%,·,·

21	COCCCn1c(Cc2csc(Nc3cccc(Cl)c3)n2)nnc1SCC(=O)OC1CCCCC1
22	COC(=O)c1ccc2c(=O)[nH]c(COC(=O)c3c(-c4ccccc4Cl)noc3C)nc2c1
23	COC(=O)c1c(C)[nH]c(C(=O)OCC(=O)c2ccc(C)s2)c1C
24	COc1ccc(NC(=S)NCCc2ccccc2)c(OC)c1
25	CC1CCCN(C(=O)Cn2nnc(-c3cccnc3)n2)C1 (stereo unspecified)
26	O=C1OC(c2ccccc2)=N/C1=C\N1CCCCC1
27	O=C(NC(C(=O)c1ccccc1)n1cnccc1=O)c1ccccc1 (stereo unspecified)
28	Oc1ccc(/C=N/N2CCCCC2)c(O)c1O
29	C/C(CC(=O)Nc1ccc(Cl)cc1C(F)(F)F)=N\NC(=O)c1cccs1
30	CC(=O)c1ccc(NC(=O)Cn2c(=O)nc(-c3ccccc3)c3ccccc32)cc1

Assay by compound,21,22,23,24,25,26,27,28,29,30
Marburg entry inh,?,?,?,1%,-14%,0%,23%&23%,0%[46.1 µM],-15%[46.1 µM],·
NS1 inh,16%,·,·,-30%,-4%,-46%,0%,5%,-30%,·
Cruzain Triton,-15%,·,·,0.3%,2.6%,-7.3%,4.2%,·,·,-1.5%
RE007 growth inh,-8%,6%,20%,-11%,0%,-14%,4%,3%,12%,·
2A StopGo,?,?,37%[activator],-3%,75%[activator],·,3%,4%,3%,15%
Cruzain noTriton,21%,·,·,-5%,-5%,-7%,6%,·,·,18%
Lassa entry inh,-1%,-5%,?,-1%,-10%,0%,?,-6%,-44%,3%[46.1 µM]
SARS PLpro yeast,4%,·,-26%,?,-5%,-7%,2%,1%,-6%,·

31	CC(C)C(=O)Nc1nnc(S(=O)(=O)N2c3ccccc3CC2C)s1 (stereo unspecified)
32	Cc1ccc(-n2c(SCC(N)=O)nc3c([nH]c4ccccc43)c2=O)cc1
33	COCCNC(=O)Cn1cnc2sc(C)c(S(=O)(=O)N3CCC(C)CC3)c2c1=O
34	COc1cc(OC)cc(C(=O)NC(=S)Nc2ccc(Cl)c(C(=O)O)c2)c1
35	c1ccc(-c2nc(NCc3ccco3)c3ccccc3n2)nc1
36	O=[N+]([O-])c1ccccc1N/N=C/c1c[nH]c2ccccc12
37	NCCNC(=O)c1c(NC(=O)c2ccccc2)sc2c1CCCC2
38	CC(C)N1CCC(N2CCN(Cc3ccc4nonc4c3)CC2CCO)CC1 (stereo unspecified)
39	Brc1cc(Br)c2nc(-c3cccs3)ccc2c1
40	COC(=O)c1ccc(CNC(=O)CSC2=NCCS2)cc1

Assay by compound,31,32,33,34,35,36,37,38,39,40
Marburg entry inh,·,·,1%&1%,-12%,?,-38%,?,-21%[46.1 µM],-2%[46.1 µM],4%[46.1 µM]
NS1 inh,-8%,-56%,?,10%,-85%,-3%,20%,4%,6%,·
Cruzain Triton,-1.5%,-3.1%&1.6%,7.5%,1.1%,-1.8%,-5.1%,·,·,0.7%,·
RE007 growth inh,-6%,8%,-18%,-3%,-1%,-17%,14%,-8%,2%,35%
2A StopGo,?,?,-16%,-13%,?,4%,34%[activator],1%,60%[activator],2%
Cruzain noTriton,-3%,-11%&5%,8%,-2%,-2%,2%,·,·,?,·
Lassa entry inh,5%[46.1 µM],-1%[46.1 µM],-3%,1%,?,?,-2%[46.1 µM],23%,?,7%
SARS PLpro yeast,5%,1%,10%,3%,-17%,-3%,1%,0%,5%,-2%

# 3 entries picked at random from the list so far:
37	NCCNC(=O)c1c(NC(=O)c2ccccc2)sc2c1CCCC2
39	Brc1cc(Br)c2nc(-c3cccs3)ccc2c1
34	COc1cc(OC)cc(C(=O)NC(=S)Nc2ccc(Cl)c(C(=O)O)c2)c1

Assay by compound,37,39,34
Marburg entry inh,?,-2%[46.1 µM],-12%
NS1 inh,20%,6%,10%
Cruzain Triton,·,0.7%,1.1%
RE007 growth inh,14%,2%,-3%
2A StopGo,34%[activator],60%[activator],-13%
Cruzain noTriton,·,?,-2%
Lassa entry inh,-2%[46.1 µM],?,1%
SARS PLpro yeast,1%,5%,3%

# Further compounds follow:
41	N#Cc1c(SCC(=O)Nc2cccc(F)c2)sc2c(O)cc(=O)[nH]c12
42	COC(=O)c1ccc(C)c(NC(=O)CCCN2C(=O)CN(C)C2=O)c1
43	CCOc1ccccc1N(CC(=O)NCCSc1ccccn1)S(=O)(=O)c1ccc(C)cc1
44	Brc1cc2[nH]cnc2c2ccccc12
45	Cc1ccc(C(=O)N2N=C3c4ccccc4S(=O)(=O)N3[C@H]2N(C)C)cc1
46	CC(=O)NNc1ncnc2c1cnn2-c1ccc(C)c(Cl)c1
47	CCOC(=O)c1c(C)oc2ccc(NS(=O)(=O)c3cccs3)cc12
48	O=c1c2c(nc3nc(COc4ccccc4)[nH]n13)CCC2
49	CCCOc1ccc(C(=O)C(CCC(CNCC)C(=O)c2ccc(OCCC)cc2)CNCC)cc1 (stereo unspecified)
50	O=C(NCCCc1ccccc1)c1cc(COc2ccc(F)cc2Cl)on1
51	Cc1cccc(OCCn2c(-c3ccc(Cl)cc3)nc3ccccc3c2=O)c1C

Assay by compound,41,42,43,44,45,46,47,48,49,50,51
Marburg entry inh,22%[46.1 µM],0%[46.1 µM],?,25%,·,-16%[46.1 µM],?,?,?,·,1%[46.1 µM]
NS1 inh,30%,·,-6%,-85%,-2%,·,2%,9%,7%,-19%,·
Cruzain Triton,·,·,·,-5.6%,·,·,-5.9%,3.0%,-1.7%,·,-0.4%
RE007 growth inh,4%,-6%,13%,-20%,1%,10%,6%,-6%,28%,-3%,·
2A StopGo,11%,-3%,-7%,5%,27%,19%,19%,10%,28µM*,-6%,-24%
Cruzain noTriton,·,·,·,-17%,·,·,-1%,-2%,-6%,·,8%
Lassa entry inh,·,22%[46.1 µM],?,17%,·,17%,-16%,-10%,13µM*,·,-25%[46.1 µM]
SARS PLpro yeast,6%,3%,-3%,-16%,-1%,-2%,-9%,-3%,-15%,-5%,·
